High-throughput results: PubChem, National Center for Advancing Translational Sciences (NCATS)
HBB splice mod: hemoglobin beta splicing modulation. HBB splicing reporter cell assay, activation; EGFP reporter with mutant IVS2-654 intron; response scale: normalised to 500 nM splice-correcting PNA. Potency, µM (doses to about 46.1 µM), for inactives: at the highest dose activation, hits mostly activators. 65,000 compounds, 0.06% hits. AID 925; also: potency is read from the fitted curve at half-maximal effect; 0% is about no effect
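Compounds were applied for 2 days to HeLa EGFP-654 cells, 500/well in Optimem with 2% FCS. The reporter's EGFP is disrupted by mis-splicing of beta-globin intron IVS2-654. Readout: summed well GFP fluorescence from 488 nm laser scanning; reference was 500 nM antisense […] 654 PNA.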
ERK AVP block: vasopressin-driven ERK pathway inhibition | HEK293-V1b, vasopressin-stimulated pERK AlphaScreen | Potency, µM (doses to about 57.5 µM), inactives show at the highest dose activity, negative = inhibition, usual class: inhibitors | 72,000 compounds, 0.99% hits | AID 995; also: potency is read from the fitted curve at half-maximal effect; % is scaled to controls: 0 for no effect and ±100 for the full control effect; nearly all actives have a fitted effect of over 55% in size
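Overnight-seeded V1b-HEK293 cells in 1% FBS got compound, then vasopressin (25 nM final, 5 min, 37C), then lysis buffer. AlphaScreen detection of phospho-ERK; activity normalized to basal and full-stimulation controls.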
ALOX15 inhib: inhibitors of human 15-lipoxygenase (ALOX15); AID 887; Potency, µM (titrated, usually from 57.1 µM), without a hit: at the highest dose activity change, negative = inhibition, actives largely listed as inhibitors; purified 15hLO-1, xylenol orange hydroperoxide absorbance; P16050; 74,000 compounds, 1.4% hits; also: potency is read from the fitted curve at half-maximal effect; % is scaled to controls: 0 for no effect and ±100 for the full control effect; nearly all actives have a fitted effect of over 55% in size
Target sequence (P16050 whole entry, looked up): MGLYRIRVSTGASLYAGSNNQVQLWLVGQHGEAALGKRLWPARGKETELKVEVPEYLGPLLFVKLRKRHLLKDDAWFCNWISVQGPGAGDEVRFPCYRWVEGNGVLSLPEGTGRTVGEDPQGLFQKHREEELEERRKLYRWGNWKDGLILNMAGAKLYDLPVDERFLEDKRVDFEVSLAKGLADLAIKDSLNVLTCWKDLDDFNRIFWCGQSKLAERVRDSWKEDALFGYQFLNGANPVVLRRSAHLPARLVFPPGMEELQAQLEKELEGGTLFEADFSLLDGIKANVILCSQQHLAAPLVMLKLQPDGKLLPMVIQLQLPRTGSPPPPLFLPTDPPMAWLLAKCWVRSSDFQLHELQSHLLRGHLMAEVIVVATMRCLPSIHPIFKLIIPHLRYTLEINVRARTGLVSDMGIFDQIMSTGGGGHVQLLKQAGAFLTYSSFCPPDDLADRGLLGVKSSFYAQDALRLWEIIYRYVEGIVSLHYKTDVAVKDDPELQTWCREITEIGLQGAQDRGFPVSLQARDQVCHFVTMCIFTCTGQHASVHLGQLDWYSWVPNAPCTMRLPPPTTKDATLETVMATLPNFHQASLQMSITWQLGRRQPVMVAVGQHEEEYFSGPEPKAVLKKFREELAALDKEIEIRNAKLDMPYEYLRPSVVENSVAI
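Purified human 15hLO-1 (40 nM final) in 25 mM Hepes pH 7.5, 0.01% Triton X-100 was preincubated with compound 15 min at room temperature, then reacted 6 min with 50 uM arachidonic acid; hydroperoxide detected by Fe-XO, 573/405 nm absorbance ratio.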
DNA Pol III inh: blocks replication by bacterial DNA polymerase III holoenzyme; reconstituted DNA polymerase III holoenzyme replication, biochemical; Potency, µM (top dose mostly 57.1 µM), without a hit: at the highest dose activity change, negative = inhibition; 71,000 compounds, 0.25% hits; also: potency is read from the fitted curve at half-maximal effect; % is scaled to controls: 0 for no effect and ±100 for the full control effect
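Reconstituted *E. coli* holoenzyme (0.35 nM Pol III, 1 nM beta, 154 nM SSB, 2 nM primase) was preincubated with compound for 15 min at RT. Synthesis on 1.4 nM ssM13Gori ran 35 min, then was stopped with PicoGreen/EDTA and read as dsDNA fluorescence.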
Epigenetic mod: epigenetic GFP locus derepression in mouse cells | 68,000 compounds, 0.09% hits | mouse C127i GFP locus derepression, cytometry, 30 h | Potency, µM (highest dose often 46.1 µM), without a hit: at the top dose GFP derepression (activation); also: % of control where 0% means no effect
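Locus derepression in mouse mammary C127i cells whose integrated CMV-GFP reporter is normally silent; GFP expression after 30 h compound treatment was quantified by counting fluorescent cells.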
Tau fil binding: tau filament binding; Potency, µM (titrated, usually from 57.1 µM), without a hit: top-dose activity change, negative = inhibition; P10636; 71,000 compounds, 2% hits; recombinant tau filaments, thioflavin S fluorescence, 15 h; filaments grown with octadecylsulfate alongside compound;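 also: potency is read from the fitted curve at half-maximal effect; % is scaled to controls: 0 for no effect and ±100 for the full control effect; actives lower thioflavin S fluorescence by blocking filaments or displacing dye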
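Assay mix: 1 uM His-tagged tau, 30 uM sodium octadecylsulfate, thioflavine S dye in HEPES/NaCl/DTT buffer. Compound is added prior to the inducer. Fluorescence after 15 h at 37 C.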
FLuc inh: inhibitors of firefly luciferase; Potency, µM (doses to about 57.1 µM), without a hit: at the top dose activity change, negative = inhibition, actives largely listed as inhibitors; 72,000 compounds, 2.2% hits; purified firefly luciferase, luminescence, 8 min; AID 411; P08659; also: potency is read from the fitted curve at half-maximal effect; % is scaled to controls: 0 for no effect and ±100 for the full control effect; nearly all actives have a fitted effect of over 40% in size
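Compounds were tested as concentration series (qHTS) against purified P. pyralis luciferase with luciferin and 10 uM ATP in 50 mM imidazole pH 7.2, 50 mM KCl, 7 mM MgCl2, 0.01% Tween 20, 0.05% BSA. Luminescence was read after 8 min at ambient temperature.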
UbGFP stabilizer: ubiquitin-GFP accumulation via proteasome inhibition. 67,000 tested, under 10 active. Ubiquitin-GFP reporter cells, proteasome inhibition, GFP fluorescence; response scale: untreated = 0%, 10 µM MG-132 = 100%. AID 526. Potency, µM (series often up to 45.9 µM), for the others: at the highest dose activation (GFP accumulation), hits mostly activators; active = well fitted activation curve with a large enough effect, not every such curve was filed as active; inconclusive = small, poorly fitted or top-dose-only effect, or another doubt; inactive = no such curve, though single readings can be large or run the other way; also: potency is read from the fitted curve at half-maximal effect
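GFP accumulation read-out: laser plate cytometry counting ubiquitin(G76V)-GFP-expressing U2OS cells after 4 hr compound exposure at 37 °C. Titrations spanned 46 uM to 2.9 nM; 0% = basal, 100% = 10 uM MG-132; concentration-response curves fitted.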
CRE-bla Fsk: CRE-bla signaling modulation under forskolin stimulation; 71,000 compounds, 2.5% hits; AID 662; CHO CRE-bla reporter (cAMP response element driving beta-lactamase), forskolin EC10, beta-lactamase ratio; Potency, µM (top dose mostly 38.2 µM), for the others: at the highest dose activity change, negative = inhibition, actives largely listed as activators; active = well fitted activation curve with a large enough effect in the signal ratio, with a control signal flat, not every such curve was filed as active; inconclusive = small, poorly fitted or top-dose-only effect, or effect the other way, or a change in a side signal; the % refers to the signal ratio; also: potency is read from the fitted curve at half-maximal effect; % of control where 0% means no effect
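qHTS titration format; CRE-bla CHO reporter; stimulus EC10 NKH 477, a water-soluble forskolin. Read: CCF4 460/530 nm ratio. Potency expressed as AC50 for activators or inhibitors.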
Active calls of the source: *; ? = inconclusive; · = not tested or not shown; [ ] = dose if it differs, or a comment. Unless noted, calls follow the shape of the dose curve; as a rule, active = well fitted curve in the direction sought with a large enough effect; inconclusive = small, poorly fitted or top-dose-only effect, or another doubt; inactive = no such curve, though single readings can be large; an effect the other way counts as inactive or inconclusive.

SMILES | HBB splice mod | ERK AVP block | ALOX15 inhib | DNA Pol III inh | Epigenetic mod | Tau fil binding | FLuc inh | UbGFP stabilizer | CRE-bla Fsk
O=C(Nc1cnc2sccn2c1=O)c1ccccc1Cl | 2.3% | -5.0% | 11.8% | -5.3% | 4.4% | -2.6% | -22.5% | 1.2% | ?
CCOC(=O)CSc1nc(C)cc(Oc2ccc(=O)n(C)n2)n1 | 1.8% | -7.8% | 7.0% | -5.6% | 0.0% | -4.7% | 1.3% | 6.2% | 2.7%
COc1ccc(S(=O)(=O)N(CCCN2CCOCC2)Cc2ccc(OC)c(OC)c2)cc1 | -0.3%[0.369 µM] | 5.6% | 4.7% | -0.1% | 3.7% | 0.9% | 0.0% | · | ?
CCN(CC)C(=O)C1=C(C)Nc2nnnn2C1c1cccnc1 (stereo not given) | 0.0% | -12.6% | 5.3% | -4.4% | 2.7% | 2.4% | 1.6% | -2.5% | -1.3%
CCOC(=O)Nc1cccc(NC(=O)c2cc(OC)cc(OC)c2)c1 | -0.3% | ? | -3.6% | -4.7% | -2.7% | -1.7% | -2.1% | 0.0% | ?
CS(=O)(=O)N(CC(=O)NCCC1=CCCCC1)c1ccc2c(c1)OCO2 | -1.3% | -10.8% | 2.4% | -3.8% | -3.2% | -2.2% | -0.8% | -3.7% | -7.2%
O=C(CN1CCOCC1)n1c2ccccc2c2ccccc21 | -0.6% | -8.0% | 5.9% | 3.1% | 1.2% | 19.7% | 0.0% | 1.1% | 19.4%
CCn1c(COc2ccc(Cl)cc2)nnc1SCC(=O)Nc1ccc2c(c1)OCCO2 | 4.3% | -18.7% | -5.5% | -4.5% | 0.0% | 180.5% | -3.9% | -5.0% | 10.3%
Cc1cc(C)nc(SCC(=O)OCN2C(=O)c3ccccc3C2=O)n1 | -0.6%[0.0738 µM] | -14.5% | -8.3%[11.4 µM] | -4.1%[11.4 µM] | 0.0% | 0.5%[11.4 µM] | 3.3% | 4.5%[9.17 µM] | ?
COc1cc(C)c(Cl)c(C)c1S(=O)(=O)NCc1ccc2c(c1)OCO2 | -1.1% | -4.5% | -7.9% | -4.8% | 2.9% | 3.7% | 0.7% | 1.2% | ?
CCOC(=O)c1nnn(CC(=O)Nc2ccccc2OC)c1C(=O)OCC | 7.6% | 12.2% | 1.4% | -8.5% | 2.1% | -9.0% | 1.1% | -3.2% | ?
CCN1CCCC1CNS(=O)(=O)c1ccc(C(=O)Nc2ccccc2)cc1 (stereo not given) | -0.3% | -8.7% | -0.3% | -5.5% | -3.2% | 120.0% | 1.7% | 12.2% | -11.2%
CCOC(=O)N1CCN(S(=O)(=O)Cc2ccccc2)CC1 | · | 19.4% | 4.3% | -6.5% | 1.3% | -7.0% | 3.0% | 7.2% | 0.1%
O=S(=O)(NCC(c1cccnc1)N1CCN(Cc2ccccc2)CC1)c1ccccc1 (stereo not given) | -0.2% | · | 1.2% | -2.5% | · | -2.9% | 1.8% | -5.5% | 1.2%
C=CCn1c(CCNC(=O)c2cccs2)nnc1SCC(=O)Nc1cccc(C(C)=O)c1 | -1.4% | -2.2% | 1.6% | -6.8% | 3.2% | -2.1% | -3.2% | 6.6% | ?
Cc1ccc(NC(=O)Cn2nnc(C(=O)NCc3cccs3)c2N)cc1 | -2.0% | -1.3% | -3.8% | -3.0% | -1.4% | 157.2% | 0.6% | -4.8% | ?
CCOc1ccccc1N(C(=O)Cn1nnnc1-c1ccc(C)o1)C(CC)C(=O)NC(C)(C)C (stereo not given) | · | 21.8% | -11.9% | -2.5% | -1.2% | -19.2% | 1.8% | 5.4% | 12.6%
COc1cc(C)nc(SCC(N)=O)n1 | 1.6% | 2.4% | 5.5% | -4.2% | 1.2% | 5.7% | 1.7% | 10.5% | ?
COc1cc(S(=O)(=O)N2CCOCC2)ccc1NC(=O)COC(=O)c1ccccn1 | -1.4% | -15.3% | 2.3% | 2.1% | -1.1% | 1.1% | -0.4% | -2.9% | ?
CCOc1cc(S(=O)(=O)NCc2ccc3c(c2)OCO3)c(C)cc1C | -0.4% | 3.7% | -11.8% | -2.6% | 1.3% | 15.8µM* | 1.8% | 14.8% | 19.7%
COc1ccc(/C(O)=C2\C(=O)C(=O)N(c3cc(C)on3)C2c2ccc(OC)c(OC)c2)cc1OC (stereo not given) | 0.8%[57.5 µM] | -14.3% | 14.9% | -6.8% | 6.4% | -4.9% | 2.6% | 7.8% | 4.5%
COc1ccccc1NC(=O)C1=C(C)Nc2nnnn2C1c1ccncc1 (stereo not given) | -0.2% | 13.1% | 3.3% | -3.0% | -0.3% | -1.2% | 0.6% | -11.9% | -2.5%
Cc1cnn(C(=S)NCc2ccc(Cl)cc2)c1 | 1.5% | 51.4%[activator] | 1.4% | -3.4% | 1.7% | -6.6% | -0.6% | -0.3% | -7.3%
CCOC(=O)Cn1c(=O)n(CC(=O)OCC)c2ccccc21 | -0.6% | -16.6% | 4.4% | -3.7% | -1.3% | 18.7% | -3.4% | -2.3% | ?
c1ccc(SCc2nc(-c3ccccn3)no2)cc1 | 0.5% | -19.5% | 8.6% | -3.9% | -2.7% | -5.6% | -5.9% | 7.4% | ?

More compounds
SMILES | HBB splice mod | ERK AVP block | ALOX15 inhib | DNA Pol III inh | Epigenetic mod | Tau fil binding | FLuc inh | UbGFP stabilizer | CRE-bla Fsk
COc1ccc(S(=O)(=O)N(CC(=O)NC2CC2)c2ccc(C)cc2)cc1OC | -0.2% | -3.4% | 7.1% | -0.6% | 0.0% | 3.5% | 1.1% | -1.2% | 6.3%
CCN1C(=O)CSc2ccc(C(=O)NC3CCCCC3)cc21 | 0.9%[1.84 µM] | 10.7% | 2.5% | -0.2% | 2.0% | 4.7% | -4.2% | 7.3% | 14.3%
O=C(NCc1cccs1)c1cnc2sccn2c1=O | -0.5% | · | 3.8% | -4.9% | · | -8.4% | 0.1% | 4.3% | ?
COCCn1c(=NC(=O)CSC(C)=O)sc2cc(F)ccc21 | 3.7% | 53.3%[activator] | 11.0% | -2.1% | 4.2% | 6.7% | -0.6% | -6.2% | ?
Cc1ccc(-c2nnc(SCC(=O)Nc3nc4c(s3)CCCC4)n2C)cc1 | · | -2.2% | 8.9% | -0.9% | -1.9% | 5.8% | 0.4% | -0.9% | -1.7%
CC(C)C(C(=O)OCC(=O)c1ccc2c(c1)NC(=O)CO2)N1C(=O)c2ccccc2C1=O (stereo not given) | -1.9% | ? | 1.2% | -3.1% | -1.0% | 14.2% | -0.6% | 0.3% | -2.0%
Cc1nn(-c2ccccc2)c2[nH]c(=O)c(CNCc3ccc4c(c3)OCO4)cc12 | -1.9% | -14.4% | -9.4% | -5.5% | -1.3% | -18.8% | -2.4% | 0.0% | ?
Cn1c(=O)c2[nH]c(-c3cccnc3)nc2n(C)c1=O | -4.2%[57.5 µM] | -7.5% | -3.0% | -5.6% | 0.0% | -7.7% | -0.4% | -1.7% | 24.1%
Cc1ccccc1OCc1nc(-c2ccc(NC(=O)c3ccc4c(c3)OCO4)cc2)no1 | 0.3% | 13.6% | -5.9% | -2.9% | 8.6% | 17.5% | -4.6% | -15.0% | ?
O=c1cc(C23CC4CC(CC(C4)C2)C3)[nH][nH]1 | -1.0% | -9.1% | 3.1% | 2.3% | 0.0% | -24.5% | -1.2% | -19.7% | ?
CC(C)NC(=O)N(O)C1N(Cc2ccc3c(c2)OCO3)C(=S)SC1(C)C (stereo not given) | 0.4%[57.5 µM] | 5.5% | -7.0% | -3.5% | 0.0% | 9.1% | 2.4% | -1.7% | -4.6%
CC(=O)Nc1cc2c(cc1NC(=O)c1cnccn1)OCCO2 | · | 4.2% | 3.4% | -2.3% | -0.1% | -19.0% | 0.5% | -2.6% | 3.1%
Nc1nc(-c2ccccc2)nc(-c2ccccc2O)n1 | -1.5% | 23.5% | ? | -3.4% | -2.0% | 71.3% | ? | -8.0% | ?
CCOC(=O)C(C)Sc1ncnc2nc[nH]c12 (stereo not given) | -0.5% | -10.7% | -3.7% | -0.3% | -4.2% | 3.1% | 0.8% | -3.4% | -2.0%
Cc1cccc(N2C(N)=NC(N)=NC23CCCCC3)c1 | -2.0% | 27.1% | 9.4% | -4.3% | -2.3% | -1.2% | 0.1% | 1.7% | ?
CCCN1C(=O)c2ccc(C(=O)NC3CCCCC3)cc2C1=O | -0.8% | -0.9% | -2.3% | -2.9% | 0.0% | 8.0% | -0.8% | -4.1% | -10.4%
Cc1cc(-c2ccccc2)nc(SCc2ccc(C(=O)O)o2)n1 | -1.5% | -17.7% | 1.7% | -3.3% | 3.4% | 3.8% | -1.7% | 2.7% | 13.9%
CCOC1(NC(=O)c2ccccc2)C(C)=CC(=O)C=C1C | 4.7% | 3.5% | -11.2% | 0.4% | -2.5% | -7.1% | 1.9% | -5.5% | ?
CCCOC(=O)c1cccc(NC(=O)C(C)(C)C)c1 | -6.8% | -9.7% | 6.9% | -4.3% | 2.5% | 1.7% | -2.4% | -9.4% | 6.0%
CC(C)Nc1nc(N(c2ccccc2)c2ccccc2)nc(-n2ccnc2)n1 | 1.5% | ? | 11.6% | -3.8% | 2.2% | 5.0% | 2.2% | 2.8% | 10.9%

Only part of the results is shown; the hit share may differ from the screen's.
